Assay outcomes (PubChem BioAssay)
KCNQ2 pot = enhances the rat KCNQ2 potassium channel; hit rate 0.54% among 310,000; B-score at 10 µM; O88943; CHO-K1 KCNQ2, FluxOR thallium flux fluorescence; active compounds read high; AID 2239;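 active = fluorescence ratio B-score at least 3 SD of library B-scores, with initial fluorescence B-score within 3 SD, cut at about 5.3 in these data; same plate scores as AID 2156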;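 note: B-score of peak minus minimum over baseline fluorescence ratio after K+ and Tl+ stimulus; positive B-score means potentiation of KCNQ2 with more thallium influx and brighter signal; only the inactives scoring about 0 or higher are listed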
Target sequence (O88943 whole entry, looked up): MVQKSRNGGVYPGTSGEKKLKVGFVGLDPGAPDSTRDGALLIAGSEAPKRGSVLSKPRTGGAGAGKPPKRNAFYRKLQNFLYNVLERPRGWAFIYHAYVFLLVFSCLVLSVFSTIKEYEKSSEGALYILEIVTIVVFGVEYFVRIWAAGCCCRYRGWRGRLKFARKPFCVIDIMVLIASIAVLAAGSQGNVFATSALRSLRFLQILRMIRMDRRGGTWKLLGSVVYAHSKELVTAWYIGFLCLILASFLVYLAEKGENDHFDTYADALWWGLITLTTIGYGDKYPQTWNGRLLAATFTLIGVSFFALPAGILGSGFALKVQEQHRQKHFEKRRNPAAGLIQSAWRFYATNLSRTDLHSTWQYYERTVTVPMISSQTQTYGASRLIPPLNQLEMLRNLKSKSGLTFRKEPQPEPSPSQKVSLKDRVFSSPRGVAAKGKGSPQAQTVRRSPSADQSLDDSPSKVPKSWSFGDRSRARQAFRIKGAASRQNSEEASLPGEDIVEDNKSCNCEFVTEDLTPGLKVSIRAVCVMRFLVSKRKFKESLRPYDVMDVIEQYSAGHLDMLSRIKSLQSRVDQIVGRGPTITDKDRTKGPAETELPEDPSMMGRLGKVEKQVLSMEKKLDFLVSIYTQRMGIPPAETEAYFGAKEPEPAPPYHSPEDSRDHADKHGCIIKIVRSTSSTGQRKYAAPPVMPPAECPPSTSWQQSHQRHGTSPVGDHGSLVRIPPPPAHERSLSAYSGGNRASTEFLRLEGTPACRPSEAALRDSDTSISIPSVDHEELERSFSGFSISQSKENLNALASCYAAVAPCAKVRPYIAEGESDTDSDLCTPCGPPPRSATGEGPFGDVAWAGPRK
KCNQ2 pot baseline = also measured in KCNQ2 pot; calls as there; B-score; compound at 10 µM; measured here: initial fluorescence intensity artifact check;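 brightness before thallium and not channel activity; 0 = typical well and far values either way flag optical interference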
* marks the source's active call; other numbers are inactive results. Some of the compounds tested, so the mix of outcomes need not match the whole.

Second line of a record: KCNQ2 pot, KCNQ2 pot baseline
[1] O=C(NCc1ccccc1)Nc1cccn(Cc2c(F)cccc2Cl)c1=O
    0.66, -1
[2] COc1cc(OC)cc(C(C)=O)c1
    0.58, 0.22
[3] COc1ccc(-n2c(=O)c3ccccc3n(CC(=O)c3ccccc3)c2=O)cc1OC
    2.1, -1.1
[4] CCCN(Cc1cc2cccc(C)c2[nH]c1=O)S(C)(=O)=O
    0.75, -0.37
[5] CC(C(=O)c1ccccc1)n1c(N2CCOCC2)nc2c1c(=O)n(C)c(=O)n2C (stereo unspecified)
    0.5, -2.4
[6] Cn1ccnc1SCC(=O)Nc1cccc(S(=O)(=O)N2CCCCC2)c1
    0.63, 0.45
[7] CCCc1nnc(NC(=O)CCC(=O)N2CCC(C)CC2)s1
    0.07, 0
[8] COc1ccc(OC)c(C(=O)c2c(C)oc3cc([N+](=O)[O-])c(O)c([N+](=O)[O-])c23)c1
    0.84, -0.32
[9] C/C(=C\c1ccc(Cl)cc1)C(=O)c1c(C)cc(C)[nH]c1=O
    3, -0.17
[10] CCOc1ccc(/C=C/C(=O)NC2CCCCC2)cc1
    0.12, -0.49
[11] CCOC(=O)[C@@H]1[C@H]2COc3ccccc3[C@@H]2N2C(=O)N(c3ccc(F)cc3)C(=O)[C@]12C
    1, -2.9
[12] COc1cc(NS(=O)(=O)c2ccc(NC(=O)c3ccc(S(=O)(=O)N4CCCCC4)cc3)cc2)ncn1
    1.1, 0.52
[13] CN1CCN(S(=O)(=O)c2ccc3c4c(cccc24)C(=O)N3)CC1
    0.02, -0.68
[14] C=CCC(C(=O)OC)(C(=O)OC)c1ccc(C(F)(F)F)cc1[N+](=O)[O-]
    0.18, 0
[15] CC1=NN(C(N)=S)C(=O)C1N=Nc1ccc([N+](=O)[O-])cc1 (stereo unspecified)
    1.2, 0.25
[16] Clc1ccccc1/C=C/c1nc(-c2cccnc2)no1
    0.67, -1.6
[17] Cc1c2cnn(-c3ccccc3)c(=O)c2c(C)n1CCCC(=O)N1CCN(C)CC1
    1.5, -1.4
[18] O=S(=O)(Nc1nc2ccccc2s1)c1ccc(Cl)nc1
    0.54, 0
[19] Cc1ccc(S(=O)(=O)N2CCCC2)cc1C(=O)NCCN1CCOCC1
    0.8, 0.24
[20] CCC(CC)=NNc1ccc([N+](=O)[O-])cc1[N+](=O)[O-]
    0.64, 1.6

Nos. 16–20 from above:
Second line of a record: KCNQ2 pot, KCNQ2 pot baseline
[16] Clc1ccccc1/C=C/c1nc(-c2cccnc2)no1
    0.67, -1.6
[17] Cc1c2cnn(-c3ccccc3)c(=O)c2c(C)n1CCCC(=O)N1CCN(C)CC1
    1.5, -1.4
[18] O=S(=O)(Nc1nc2ccccc2s1)c1ccc(Cl)nc1
    0.54, 0
[19] Cc1ccc(S(=O)(=O)N2CCCC2)cc1C(=O)NCCN1CCOCC1
    0.8, 0.24
[20] CCC(CC)=NNc1ccc([N+](=O)[O-])cc1[N+](=O)[O-]
    0.64, 1.6

The listing continues:
Second line of a record: KCNQ2 pot, KCNQ2 pot baseline
[21] CCn1nc(C)c(CN2CCCC(CO)(Cc3cccc(Cl)c3)C2)c1C (stereo unspecified)
    1.2, -0.19
[22] Cc1cc(C)n2nc(SCCOc3ccccc3)nc2n1
    0.05, -1.7
[23] CC(C)(C)NC(=O)NC(=O)COC(=O)c1cc(=O)[nH]c2ccccc12
    0.32, -0.15
[24] Cn1nc(C(=O)NNC(=O)C2CSC3(C)CCC(=O)N23)c2ccccc2c1=O (stereo unspecified)
    0.04, 1.9
[25] CC(C)c1ccc2[nH]c3nc(SCC(=O)N4CCOCC4)nnc3c2c1
    0.78, 1.4
[26] COc1ccc(NC(=O)CC(C)c2ccccc2)c([N+](=O)[O-])c1 (stereo unspecified)
    2.5, 0.01
[27] COc1cc(/C=C(/NC(=O)c2ccccc2Cl)C(=O)O)cc(OC)c1OC
    0.15, 0.32
[28] C=CCn1c(SCC(=O)Nc2cc(OC)c(NC(=O)c3ccco3)cc2OC)nnc1-c1ccncc1
    1.5, -1.8
[29] CCOC(=O)N1CCN(C(=O)CSc2nc(-c3cccc(C)c3)ns2)CC1
    0.85, 0.28
[30] Clc1ncc(CSc2ccccc2)s1
    0.97, -1.8
[31] COc1cc(/C=N/NC(=O)c2ccncc2)ccc1OCC(=O)Nc1ccccc1
    0.41, 0.19
[32] O=C(CSc1nc2scc(-c3ccccc3)c2c(=O)[nH]1)N1CCCCC1
    0.02, 0.78
[33] CCS(=O)(=O)N1CCN(c2ccccc2)CC1
    0.6, 0.77
[34] Cc1nc2ncccn2c1-c1csc(Nc2cccc(C(=O)O)c2)n1
    0.53, 0.84
[35] CCC(C(=O)NCCCN1CCOCC1)n1c2ccccc2c2nc(=O)cc(C)n21 (stereo unspecified)
    0.27, 0.11
[36] CCOC(=O)N1CCN(C(=S)NC(=O)c2ccc(F)cc2)CC1
    0.59, 3.7
[37] CC1CCCN(C(=O)COC(=O)Cc2ccc(Cl)cc2)C1 (stereo unspecified)
    0.95, -0.26
[38] O=C(COC(=O)CNC(=O)c1ccc(Cl)cc1Cl)NC1CCCCCCC1
    1.6, -1.2
[39] O=c1cc(-c2ccc(Br)cc2)[nH][nH]1
    0.05, -0.39
[40] O=C(Nc1ccc(Br)cc1Cl)c1ccc2c(=O)n3c(nc2c1)CCC3
    1.2, -3.2
[41] O=C(O)c1cc(NN=Nc2ccc(Br)cc2)cc([N+](=O)[O-])c1
    7.4*, -1.7*
[42] COc1ccc(C(CNC(=O)c2cccnc2SC)N2CCOCC2)cc1 (stereo unspecified)
    0.06, -0.38
[43] CCOc1ccc(NC2=NC(C)(C)N=C(N)N2)cc1
    0.53, 2.2
[44] Clc1ccc(-c2cn3cc(Cl)ccc3n2)cc1
    1.5, -0.75
[45] COc1ccc(CC(=O)NNC(=O)c2ccc(SCc3cc(F)ccc3F)c([N+](=O)[O-])c2)cc1
    0.13, -0.66
[46] Cc1nn(C)c(NC(=O)c2ccc(Cl)cc2)c1Cl
    0.39, 2.1
[47] O=C(CCCc1ccccc1)Nc1ccnn1C1CCN(Cc2ccc(Cl)cc2)CC1
    1.3, 1.1
[48] c1cc[n+](CCCC[n+]2ccccc2)cc1
    0.05, -0.23
[49] CNc1cc(C(F)(F)F)nc(-c2ccccn2)n1
    2.5, -0.16
[50] COCCn1nnnc1C(C(C)C)N1CCCC(C)C1 (stereo unspecified)
    1.9, 0.08
[51] CCCCn1c(C23CC4CC(CC(C4)C2)C3)n[nH]c1=S
    1, 1.1
[52] CCCOc1ccc(-c2c(C(=O)N/N=C/c3ccccc3)nnn2-c2nonc2N)cc1
    0.06, -1.8
[53] COc1ccc(-n2nc(C(=O)NCC(=O)NCCCN3CCN(C)CC3)c3ccccc3c2=O)cc1
    0.58, 1.6
[54] CCNc1oc(COc2ccccc2F)nc1C#N
    1.2, -1.1
[55] NC(=O)COc1ccc(Nc2nnc(-c3ccc(O)cc3)c3ccccc23)cc1
    0.89, -0.45
[56] CC1(CCc2ccccc2)NC(=O)N(CC(=O)Nc2ccc3c(c2)OCCO3)C1=O (stereo unspecified)
    1.3, -0.32
[57] CC(=O)/C(N)=N/Nc1cccc(Cl)c1
    1.3, -1.5
[58] CCc1nc(SCC(=O)Nc2nnc(CC)s2)c2c(=O)n(C)c(=O)n(C)c2n1
    0.51, -0.58
[59] O=C1CNC(=S)N1CCOc1ccccc1
    0.53, -0.01
[60] COc1cc(C(=O)NCc2nnc(SCC(=O)Nc3c(C)cc(C)cc3C)o2)cc(OC)c1OC
    4.1, 1.1
[61] CN(Cc1ccccc1)c1ncnc2sccc12
    2.2, -1.5
[62] Cc1ccc(S(=O)(=O)N2CCC(C(=O)Nc3ccncc3)CC2)cc1
    0.77, -0.05
[63] COc1ccccc1NS(=O)(=O)c1cccc(NC(=O)NCCCl)c1
    1.1, -0.54
[64] C=CCn1c(SCC(=O)Nc2ccccc2OC)nnc1-c1ccco1
    0.34, 1
[65] O=C1c2ccccc2C(=O)C1(CO)c1ccc(OC(F)F)cc1
    0.93, -1.8
[66] Cn1cc(Br)c(C(=O)N2CCc3ccccc32)n1
    1.8, -0.42
[67] CN1CCN(Cc2c(O)ccc3c(-c4ccccc4)cc(=O)oc23)CC1
    0.67, -0.07
[68] CC(=O)c1ccc(Nc2ncnc3c2oc2ccccc23)cc1
    0.11, -0.17
[69] CN(C(=S)NC(=O)C1(C)CC1(Cl)Cl)c1ccccc1 (stereo unspecified)
    0.05, 0.05
[70] COCc1c(C(=O)N/N=C\c2cccnc2)nnn1-c1nonc1N
    0.19, -0.24
[71] CCN(C(=O)c1ccc2c(c1)OCO2)C1CCS(=O)(=O)C1 (stereo unspecified)
    1.4, 0.04
[72] Cc1ncc([N+](=O)[O-])n1Cc1cccc(F)c1
    1.4, 0.08
[73] COc1ccc(S(=O)(=O)Nc2cccc(-c3ccc(N4CCCCCC4)nn3)c2)cc1OC
    0.24, -0.05
[74] CC(=O)Nc1cc(S(=O)(=O)C(F)(F)F)ccc1Cl
    0.05, 0.21
[75] O=C(O)c1cccc(NC(=O)c2cn(-c3ccccc3)nc2-c2ccncc2)c1
    0.46, 2
[76] COc1ccc(OC)c(NC(=O)CN(C)S(=O)(=O)c2ccc(Cl)cc2)c1
    0.95, -1
[77] O=c1c2cc(F)ccc2[nH]c(=S)n1CCCN1CCOCC1
    0.03, -0.61
[78] OCCN1CCOCCN(CCO)CCN(CCO)CC1
    1.1, -0.72
[79] CCCCCN(C(=O)CCC(=O)OCC(=O)c1ccc(C(C)CC)cc1)c1c(N)n(CCCC)c(=O)[nH]c1=O (stereo unspecified)
    0.48, 2.1
[80] O=C(c1ccc(F)cc1)N1CCC(c2ccccc2)C1 (stereo unspecified)
    0.05, -0.57

In a second layout: 5 of the compounds above
[76] COc1ccc(OC)c(NC(=O)CN(C)S(=O)(=O)c2ccc(Cl)cc2)c1
[79] CCCCCN(C(=O)CCC(=O)OCC(=O)c1ccc(C(C)CC)cc1)c1c(N)n(CCCC)c(=O)[nH]c1=O (stereo unspecified)
[69] CN(C(=S)NC(=O)C1(C)CC1(Cl)Cl)c1ccccc1 (stereo unspecified)
[71] CCN(C(=O)c1ccc2c(c1)OCO2)C1CCS(=O)(=O)C1 (stereo unspecified)
[73] COc1ccc(S(=O)(=O)Nc2cccc(-c3ccc(N4CCCCCC4)nn3)c2)cc1OC
compound no.	76	79	69	71	73
KCNQ2 pot	0.95	0.48	0.05	1.4	0.24
KCNQ2 pot baseline	-1	2.1	0.05	0.04	-0.05

The listing picks up with the 2 entries that preceded the break.
Second line of a record: KCNQ2 pot, KCNQ2 pot baseline
[79] CCCCCN(C(=O)CCC(=O)OCC(=O)c1ccc(C(C)CC)cc1)c1c(N)n(CCCC)c(=O)[nH]c1=O (stereo unspecified)
    0.48, 2.1
[80] O=C(c1ccc(F)cc1)N1CCC(c2ccccc2)C1 (stereo unspecified)
    0.05, -0.57
[81] Cc1ccc(-c2cc(C(=O)O)c3ccccc3n2)c(C)c1
    1.6, 0.51
[82] CCOC(=O)C1=C(CSc2nccn2C)NC(=O)NC1c1cc(C)ccc1C (stereo unspecified)
    0.12, 0.93
[83] O=C1C=C(Nc2ccc(O)cc2)C(=O)c2ccccc21
    0.07, 0.39
[84] COc1ccc(-c2cn(-c3ccc(Cl)cc3)c3[n+]2CCCCC3)cc1
    1.4, -0.46
[85] CCOC(=O)N1CCN(C(=O)CSc2nnc(C3COc4ccccc4O3)o2)CC1 (stereo unspecified)
    1.1, -0.12
[86] CCOc1ccc(CC2CCC(=O)NC2=O)cc1 (stereo unspecified)
    0.06, -1.5
[87] CC(C)N1CCN(Cc2nc3c(s2)CCCC3)CC1CCO (stereo unspecified)
    0.08, -0.69
[88] Cc1cccc(NC(=O)C2CC(=O)OC23CCCCC3)c1 (stereo unspecified)
    0.84, 1.6
[89] CC(C)c1ccc(/C=C/C2=NNC(=O)CC2)cc1
    4, 0
[90] CCCOc1ccccc1-n1sc2c(c1=S)-c1cc(OC)cc3c1N(C(=O)C3=O)C2(C)C
    0.34, 0.14
[91] Cc1ccccc1OCC(=O)Nc1cccc(C(=O)O)c1
    0.88, 0.13
[92] CCn1nc(C)c(CNC(=O)CC2C(=O)NCCN2CC(C)(C)C)c1C (stereo unspecified)
    1.7, -0.68
[93] COc1ccc(-c2[nH]ncc2/C=N/NC(=O)c2cc(Br)ccc2O)c(OC)c1
    0.09, -1.1
[94] Cc1ccc(Cl)cc1N1CCN(Cc2nc3c(c(=O)[nH]c(=O)n3C)n2CCc2ccccc2)CC1
    0.54, -1.3
[95] COc1ccc(C(=O)OCC(=O)Nc2cc(C)c(C)cc2[N+](=O)[O-])cc1
    0.06, -1.3
[96] COc1ccc(C(C(=O)Nc2ccc(F)cc2)N(C(=O)Cn2nnc3ccccc32)C2CC2)cc1 (stereo unspecified)
    0.77, 0.28
[97] COC(=O)c1cc(Br)c(=O)n(-c2cc(C)on2)c1
    0.02, -1.5
[98] CS(=O)(=O)c1ccc2nc(NC(=O)CN3CCCCCC3)sc2c1
    0.5, -0.3

Exported with the structure last: entries from further up
no. | KCNQ2 pot | KCNQ2 pot baseline | structure
85 | 1.1 | -0.12 | CCOC(=O)N1CCN(C(=O)CSc2nnc(C3COc4ccccc4O3)o2)CC1 (stereo unspecified)
86 | 0.06 | -1.5 | CCOc1ccc(CC2CCC(=O)NC2=O)cc1 (stereo unspecified)
87 | 0.08 | -0.69 | CC(C)N1CCN(Cc2nc3c(s2)CCCC3)CC1CCO (stereo unspecified)
88 | 0.84 | 1.6 | Cc1cccc(NC(=O)C2CC(=O)OC23CCCCC3)c1 (stereo unspecified)
89 | 4 | 0 | CC(C)c1ccc(/C=C/C2=NNC(=O)CC2)cc1
90 | 0.34 | 0.14 | CCCOc1ccccc1-n1sc2c(c1=S)-c1cc(OC)cc3c1N(C(=O)C3=O)C2(C)C
